Source: PubChem (several laboratories)
rRNA inh HTS: reduced GFP signal of wild-type E. coli, primary screen, bacterial rRNA inhibitor project, GFP/RFP fluorescence, OD600, single point. E. coli WT GFP vs humanized-ribosome RFP mutants, 24 h; hits give low values; DMSO median 0, no signal -100. GFP signal change (wild-type ribosome), % (concentration not given with the values). hit rate 1.6% among 350,000;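 active = significant combined selectivity score with lowered wild-type GFP, culture density cut under 30%, mutant RFP and density less affected; inactive = any of these conditions unmet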; also: one replicate is shown; some compounds called inactive have numbers as strong as hits
Vif A3G: inhibitors of Vif binding to APOBEC3G peptide, primary screen, biochemical, TR-FRET, GST-Vif 1-94, biotin-A3G peptide, dose response retest (AID 1117319). Virion infectivity factor (Human immunodeficiency virus type 1 group M subtype B (isolate …. TR-FRET GST-Vif / biotin-A3G peptide binding; higher % means a stronger effect; test concentration not given here; strong numbers were not always called active. inhibition, %, or IC50 in µM where a hit was titrated. hit rate 0.57% among 260,000;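 active = above the screen mean plus three standard deviations and confirmed in dose response; inconclusive = results disagree or hit not tested in dose response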;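 also: Vif residues 1-94 fused to GST binding biotinylated APOBEC3G peptide 110-148; 0% = full assay without inhibitor and 100% = GST in place of GST-Vif; retest series ran down from 100 µM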
MLL AF4-AF9 inh: inhibitors of AF4 peptide binding to AF9, primary screen, biochemical, AlphaScreen, biotin-AF4 peptide, FLAG-AF9, single point; Protein AF-9 (Homo sapiens), P42568; inhibition, % at 10 µM; hit rate 0.47% among 350,000;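 active = every replicate reaching a set inhibition limit, whatever the replicate mean, cut at about 25% in these data; inconclusive = mean inhibition reaches that limit but some replicates miss it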;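 also: 0% = plate neutral control median and 100% = total signal loss; the record names both 10 and 1 µM as test concentration; the first replicate is given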
Target sequence (P42568 whole entry, looked up): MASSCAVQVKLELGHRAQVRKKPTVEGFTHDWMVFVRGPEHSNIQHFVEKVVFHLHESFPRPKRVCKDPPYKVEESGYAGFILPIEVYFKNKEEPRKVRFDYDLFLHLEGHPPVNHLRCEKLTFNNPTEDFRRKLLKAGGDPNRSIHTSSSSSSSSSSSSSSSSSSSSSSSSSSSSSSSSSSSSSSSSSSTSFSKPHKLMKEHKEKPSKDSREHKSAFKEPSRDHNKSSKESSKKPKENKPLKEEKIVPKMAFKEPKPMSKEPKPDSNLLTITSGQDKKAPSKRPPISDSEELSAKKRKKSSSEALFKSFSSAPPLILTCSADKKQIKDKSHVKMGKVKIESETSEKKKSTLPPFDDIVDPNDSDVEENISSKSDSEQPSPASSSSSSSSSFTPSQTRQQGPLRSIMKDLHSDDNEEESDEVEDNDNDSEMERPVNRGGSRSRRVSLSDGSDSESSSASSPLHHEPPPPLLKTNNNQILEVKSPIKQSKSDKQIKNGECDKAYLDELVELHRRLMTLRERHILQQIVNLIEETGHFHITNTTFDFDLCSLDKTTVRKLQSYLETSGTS
HNF4A DNA FP: change in binding of human HNF4A to DNA, primary screen, biochemical, fluorescence polarization, FITC-DNA; Hepatocyte nuclear factor 4-alpha (Homo sapiens), P41235; activity change, % at 10 µM; 1 h; hit rate 0.3% among 360,000; in the data active = activity change above about 30%, passing the limit was not always enough;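 also: controls were the assay level and a saturating level of protein; the project sought stronger binding though the title names inhibitors; some compounds called inactive have numbers as strong as hits; positive values seem to mean higher polarization but the record does not say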
Target sequence (P41235 whole entry, looked up): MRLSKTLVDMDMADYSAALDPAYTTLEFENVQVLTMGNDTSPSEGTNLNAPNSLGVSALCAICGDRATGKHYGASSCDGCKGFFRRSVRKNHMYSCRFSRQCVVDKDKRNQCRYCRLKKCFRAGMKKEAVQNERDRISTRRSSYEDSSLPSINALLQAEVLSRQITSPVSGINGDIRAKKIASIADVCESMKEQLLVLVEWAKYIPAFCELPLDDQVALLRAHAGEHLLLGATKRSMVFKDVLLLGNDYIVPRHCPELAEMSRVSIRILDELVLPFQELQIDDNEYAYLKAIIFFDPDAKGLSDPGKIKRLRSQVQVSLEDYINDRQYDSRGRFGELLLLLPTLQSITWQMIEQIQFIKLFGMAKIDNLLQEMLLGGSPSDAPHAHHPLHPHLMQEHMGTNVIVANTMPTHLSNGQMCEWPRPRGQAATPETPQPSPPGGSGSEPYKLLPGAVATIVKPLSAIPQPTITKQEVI
FGF22 binding: binders of human FGF22 protein, primary screen, FGF22 synaptogenesis inhibitor project, biophysical, thermal shift, single point. AID 651658, 2012. calls only at 9.99 µM. hit rate 1.5% among 340,000. recombinant FGF22 thermal shift, SYPRO orange fluorescence; percent of sucrose octasulfate shift, DMSO zero. Fibroblast growth factor 22 (Homo sapiens), Q9HCT0;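 active = melting point raised past a set limit in the mean and every replicate; inconclusive = no clear call; three in four hits are not shown here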
E coli growth: E. coli growth inhibition, primary screen, OD600; OD600 absorbance (concentration not given with the values); hit rate 0.21% among 330,000; Escherichia coli growth, 23 h; hits give low values; AID 1053175, 2014;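 active = OD600 absorbance below the run mean of sample wells minus 3.6 SD, in any replicate, cut at about 0.56 in these data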;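 also: stock transfer was 300 nL into about 60 µL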
ALR inh: inhibitors of human ALR sulfhydryl oxidase, primary screen, biochemical, H2O2 detection, HRP-luminol luminescence, single point; FAD-linked sulfhydryl oxidase ALR (Homo sapiens), P55789; purified ALR, DTT oxidation; inhibition, % (test concentration not listed); hit rate 3.8% among 290,000; AID 485317, 2010;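 active = mean and each replicate at 75% or more; inconclusive = only one of the two met; inactive = neither met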;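 also: stock transfer was 7.5 nL into about 7.5 µL; 0% = neutral wells and 100% = wells with inactivated enzyme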
rRNA inh HTS OD600: second read-out of rRNA inh HTS, no call of its own (marks repeat the call); OD600 change, %; measured here: OD600 growth;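 optical density of the mix in the first replicate; 0 = DMSO median and -100 = no signal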
rRNA inh HTS RFP: recorded beside rRNA inh HTS, whose call it bears; RFP signal change, %; measured here: RFP humanized mutant strains;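 first replicate; 0 = DMSO median and -100 = no signal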
* hit, by the source's call; i = inactive; ? = inconclusive; . = not tested or not shown; & = joins results of further samples. Only part of the results is shown (hit frequency here may not be typical).

SMILES	rRNA inh HTS	rRNA inh HTS OD600	rRNA inh HTS RFP	Vif A3G	MLL AF4-AF9 inh	HNF4A DNA FP	FGF22 binding	E coli growth	ALR inh
CC(C)c1ccc(CN2CCC(n3nccc3NC(=O)C3CCCC3)CC2)cc1	11	-36	31	-2%	3.7	1.5	i	.	.
CC(C)c1ccc(NS(=O)(=O)c2ccc(N3C(=O)CCC3=O)cc2)cc1	2	-15	1.1	-5%	0.9	1.0	i	0.66	-3
CCCNS(=O)(=O)c1ccc(-n2cnnn2)c(OC)c1	9	6	1.4	9%	-0.1	-2.2	i	0.67	40
CCc1cc(=O)oc2c(C)c(OC(C)C(=O)NC3CC(C)(C)NC(C)(C)C3)ccc12 (centres undefined)	0	0	-0.3	.	-2.5	0.6	i	0.7	-1
N#Cc1c(-c2ccccc2Cl)cc(-c2ccccc2)nc1Br	2	2	4.9	-17%	-23	-2.9	i	0.7	2
CCOc1ccc(OCC)c(NC(=O)CN2CCN(CC(=O)NC(C)C)CC2)c1	9	5	0.0	.	-6.2	-1.7	i	0.68	-14
Cc1cc(C)cc(OCC(=O)OCC(=O)Nc2c(C)n(C)n(-c3ccccc3)c2=O)c1	-9	3	-3.6	-5%	-3.5	2.7	i	0.72	14
CC1(C)CC(=O)C=C(NCc2cccs2)C1	.	.	.	-1%	.	6.7	.	0.66	5
CCOc1ccc(NC(=O)NC(=O)N(C)S(=O)(=O)c2ccc(C)cc2)cc1	5	3	-2.1	4%	0.5	-1.3	i	0.69	-21
CC(=O)CCc1ccc(OCCCCn2cncn2)cc1	.	.	.	27%	.	0.8	.	0.73	-2
CC(C)(C)n1nnnc1CN(Cc1cccnc1)Cc1ccccc1Cl	.	.	.	3%	.	5.1	.	0.66	-8
CCOC(=O)c1ccc2c(c1)nc(SCC(=O)c1cc3ccccc3o1)n2CC	.	.	.	1%	.	3.8	.	0.71	19

Quoted from the listing.
Entry for `CC1(C)CC(=O)C=C(NCc2cccs2)C1` under HNF4A DNA FP: 6.7
Entry for `CC(=O)CCc1ccc(OCCCCn2cncn2)cc1` under Vif A3G: 27%
Entry for `CC(C)(C)n1nnnc1CN(Cc1cccnc1)Cc1ccccc1Cl` under Vif A3G: 3%

Continuation.
SMILES	rRNA inh HTS	rRNA inh HTS OD600	rRNA inh HTS RFP	Vif A3G	MLL AF4-AF9 inh	HNF4A DNA FP	FGF22 binding	E coli growth	ALR inh
N#Cc1cc(C(=O)c2cc(Br)ccc2O)cn(C2CCCCC2)c1=O	-13	-14	9.1	0%	-1.7	3.2	i	0.63	-5
CCOc1ccc(N2C(N)=NC(N)=NC2(C)C)cc1	.	.	.	2%	.	2.1	.	0.74	-14
C[C@@H]1CCCCO[C@@H](CN(C)C(=O)NC2CCCCC2)[C@@H](C)CN([C@@H](C)CO)C(=O)c2cc(NS(=O)(=O)c3ccc(F)cc3)ccc2O1	1	2	-0.4	.	-2.9	.	i	.	.
O=S(=O)(c1ccc(Br)cc1)N1CCN=C1SCc1cccnc1	4	-7	0.3	3%	-2.2	-0.6	i	0.67	?
NCCN1CCN(CC(=O)N2c3ccccc3C(=O)Nc3cccnc32)CC1	8	16	-2.8	.	4.3	4.8	i	0.68	.
COc1ccccc1N1CCN(C(=O)c2cc(S(=O)(=O)N3CCOCC3)ccc2C)CC1	0	1	0.3	-6%	-8.1	2.2	i	0.67	.
COc1ccccc1-c1ccc([C@@H]2[C@@H](CO)N3CCCCN(C(=O)NC4CCCC4)C[C@H]23)cc1	5	-16	15	.	4.7	.	i	.	.
COc1ccc(NC2CCCN(C(=O)CN3C(=O)c4ccccc4C3=O)C2)cc1OC (centres undefined)	7	4	-0.3	3%	-0.5	-1.6	i	0.68	98*
Cc1cc(C(=O)Nc2cccc3c2O[C@@H](CN(C)S(=O)(=O)c2ccccc2)[C@H](C)CN([C@H](C)CO)C3=O)n(C)n1	2	5	-1.6	.	0.8	.	i	.	.
O=S(=O)(c1ccc(F)cc1)N1CCC2(CC1)OCCO2	-6	0	-0.3	-4%	-2.5	-3.9	i	0.73	-48
O=C(CC1SC2=NCCN2C1=O)Nc1ccccc1 (centres undefined)	.	.	.	?	.	0.7	.	0.73	6
CC(C)c1ccc(N(C(=O)c2ccco2)C(C(=O)NC2CCCC2)c2ccncc2)cc1 (centres undefined)	1	7	-0.1	-8%	-1.4	1.3	.	0.62	.
O=C(O)CC(=O)NC12CC3CC(CC(C3)C1)C2	.	.	.	25%&3%	.	-0.2&2.4	.	0.64&0.74	-4
Cc1cc2oc(=O)cc(-c3ccccc3)c2c(C)c1-c1ccc(F)c(Cl)c1	13	24	2.1	1%	1.0	-1.0	i	0.74	.
O=C(CNC1CCCC1)Nc1ccc(S(=O)(=O)N2CCCCC2)cc1	1	4	3.4	.	2.2	-2.4	i	0.62	-7
O=C(CN1CCCCC1)Nc1ccc(S(=O)(=O)NC2CCCCC2)cc1	10	1	-1.2	4%	-58	-0.6	i	0.69	3
Cc1ccc(F)cc1C(=O)N1CCCCC1c1cc(C(=O)Nc2cccc(C#N)c2)no1 (centres undefined)	-11	-13	-1.2	.	0.1	1.1	i	.	.
COc1ccc(CN(C)C[C@H]2Oc3ccc(NC(=O)NC4CCCCC4)cc3C(=O)N([C@H](C)CO)C[C@@H]2C)cc1	-1	-8	-4.1	.	0.8	.	i	.	.
Cc1ccc(NC(=O)Nc2ccccc2CC[N+](=O)[O-])cc1	0	1	-2.1	-7%	-1.9	-1.1	i	0.69	-3
CC(=O)NC(c1ccco1)c1cc(F)c2cccnc2c1O (centres undefined)	19	-13	3.9	.	-3.2	-2.1	i	0.69	-9
CN(C)c1ccc(Nc2nc(-c3cccnc3)cs2)cc1	.	.	.	18%	.	0.6	.	0.75	95*
O=C(NC1CC1)C1CCN(S(=O)(=O)c2ccc(Cl)c([N+](=O)[O-])c2)CC1	1	15	-0.5	.	-3.3	0.6	i	0.71	-5
CCC(C)(C)NC(=O)C1CCCN(S(=O)(=O)c2ccc3c(c2)CC(C)N3C(=O)C2CC2)C1 (centres undefined)	-18	-15	2.9	.	-1.8	2.3	i	0.6	-5
NC(=S)NN=C1Cc2cccc3cccc1c23	2	-4	1.5	3%	0.4	5.0	i	0.7	.
CCCCC(CC)C(=O)Nc1ncc([N+](=O)[O-])s1 (centres undefined)	-44	-50	0.3	-3%	3.7	2.0	.	0.64	-5
Clc1ccc(CO/N=C2\CCCc3nonc32)cc1	.	.	.	11%	.	4.2	.	.	1
Nc1nc(N)c2sc3nc4c(cc3c2n1)CCC4	.	.	.	6%	.	0.2	.	0.68	25
Cc1ccc(S(=O)(=O)N2CCCOC2CNC(=O)C(=O)NCCN2CCOCC2)cc1 (centres undefined)	.	.	.	7%	0.0	1.8	i	0.68	0
CC(C)(C)C(=O)OCC1OC(n2cnc(C(N)=O)n2)C(O)C1O (centres undefined)	.	.	.	?	.	-3.2	.	0.67	1
CN1CCN(C(=O)NCC23CC4CC(CC(C4)C2)C3)CC1	1	7	3.9	.	-0.6	5.6	i	0.69	-1
C[C@H](CO)N1C[C@H](C)[C@@H](CN(C)C(=O)Nc2ccc(F)cc2)Oc2c(NC(=O)Nc3ccccc3)cccc2C1=O	0	0	-1.0	.	-3.4	.	i	.	.
Cc1ccc(S(=O)(=O)N(C)C)cc1NC(=O)COc1ccccc1C(=O)Nc1ccccc1	-19	-26	3.2	1%	0.1	-1.1	i	0.69	-7
C[C@@H]1CCCCO[C@H](CN(C)S(=O)(=O)c2cccs2)[C@H](C)CN([C@@H](C)CO)C(=O)c2cc(NS(=O)(=O)c3ccc(F)cc3)ccc2O1	-3	-4	7.7	.	-5.0	.	i	.	.
COCCCNC(=S)N1CCN(S(C)(=O)=O)CC1	.	.	.	-2%	.	2.6	.	0.73	15
Oc1[nH]c(=S)sc1/C=C1\C(c2ccccc2)=Nc2ccccc21	.	.	.	.	.	95*	.	0.7	49
O=C(CN(c1ccc2c(c1)OCCO2)S(=O)(=O)c1ccccc1)NCc1ccc(Cl)cc1	-15	-21	0.8	0%	5.6	1.4	i	0.7	-1
O=C(CCc1ccc(Oc2cc([N+](=O)[O-])cc([N+](=O)[O-])c2)cc1)NC1CCCC1	25	18	1.2	.	-9.5	-1.8	i	0.71	-15
COc1ccc(NC(=O)CNC(=O)Cc2cccc3ccccc23)cc1	1	-9	2.0	.	-1.0	-4.2	i	0.7	-1
COC(=O)[C@@]1(Cc2ccc(F)cc2)[C@H]2c3cc(C(=O)N4CCCC4)n(CCSCCO)c3C[C@H]2CN1C(=O)c1ccccc1	-12	-4	4.6	.	7.1	-0.1	i	.	.
COc1cc(Cl)c(S(=O)(=O)NCc2ccccn2)cc1Cl	.	.	.	-3%	.	-0.6	.	0.69	-7
COC(=O)C1=C(C)Nc2ncnn2C1c1ccco1 (centres undefined)	.	.	.	5%	.	3.2	.	0.74	3
C[C@@H](NC(=O)C1(c2ccccc2)CCN(C(=O)OC(C)(C)C)CC1)C(=O)N[C@@H](C(=O)O)c1ccccc1	.	.	.	.	-1.8	2.9	i	0.74	-3
CC(=O)c1ccc(NS(=O)(=O)c2ccc3c(c2)CCC(=O)N3)cc1	6	11	-0.9	-3%	-0.5	3.9	i	0.71	.
CCOC(=O)c1ccc(N=Nc2c(C)c(C#N)c(O)[nH]c2=O)cc1	.	.	.	-2%	.	-41	.	.	-24
O=C(c1cccc(N2C(=O)C3C4C=CC(C4)C3C2=O)c1)N1CCN(c2ccccc2Cl)CC1 (centres undefined)	-27	-28	-4.8	0%	-1.8	-3.5	i	0.71	21
Cc1ccc(C2(CCNCc3ccc(N(C)C)cc3)CCOC(C(C)C)C2)cc1 (centres undefined)	-54	-81	-34	4%	40*	-1.2	i	.	.
COc1cccc(C(=O)Nc2nnc(-c3ccc(OC)cc3OC)s2)c1	6	14	-0.7	.	-1.6	-0.4	i	0.68	-5
COC(=O)CSc1nc2cc(Cl)ccc2c(=O)n1C1CCCC1	.	.	.	0%	.	-1.8	.	0.73	-6
CCC(NC(=O)c1ccccc1NC(=O)c1ccccc1)C(=O)O (centres undefined)	7	-5	-2.5	-3%	-34	0.0	i	0.66	2
CC1Cc2ccccc2N1C1=NS(=O)(=O)c2ccccc21 (centres undefined)	-7	-9	-4.7	-2%	2.3	3.9	i	0.69	-6
Cc1ccc(S(=O)(=O)N(C)C)cc1NC(=O)CN1CCCC1	4	11	-1.5	.	-18	-0.1	i	0.68	-8
CCCNC(=O)N1[C@H](CO)[C@@H]2c3ccccc3N(C(=O)C3CCOCC3)C[C@@H]21	3	2	-1.3	.	-2.2	.	i	.	.
C[C@H](CO)N1C[C@H](C)[C@H](CN(C)C(=O)c2ccccc2)Oc2ncc(Br)cc2C1=O	-4	-5	-1.2	.	-1.2	.	i	.	.

Some entries already given, showing only rRNA inh HTS OD600 and E coli growth.
structure	rRNA inh HTS OD600	E coli growth
Cc1ccc(S(=O)(=O)N(C)C)cc1NC(=O)COc1ccccc1C(=O)Nc1ccccc1	-26	0.69
C[C@@H]1CCCCO[C@H](CN(C)S(=O)(=O)c2cccs2)[C@H](C)CN([C@@H](C)CO)C(=O)c2cc(NS(=O)(=O)c3ccc(F)cc3)ccc2O1	-4	.
